Screens: PubChem BioAssay, several laboratories
RanGTP-Impb inh – inhibitors of RanGTP-importin-beta interaction, primary screen, biochemical, FRET, CFP-Ran, YFP-importin-beta, homogeneous. cell-free CFP-Ran/YFP-importin-beta FRET ratio. inhibition, % (concentration not given with the values). hit rate 1.1% among 300,000;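 active means most replicates above 15%; inconclusive means exactly half above 15%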;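 further: 0% = DMSO wells and 100% = Ran loaded with GDP instead of GTP; wells of about 40 µL received 100 nL stock; the first replicate is given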
Calb FLC – C. albicans growth inhibition with fluconazole, primary screen, CaCi-2 strain, Alamar Blue fluorescence; C. albicans CaCi-2 (fluconazole-resistant clinical isolate) + fluconazole, 48 h; growth inhibition, % (concentration not given with the values); hit rate 0.57% among 300,000; AID 1979, 2009;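 active means most replicates above 75%; inconclusive means exactly half above 75%; inactive means most below 75%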;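 further: all wells also contain fluconazole at 8 µg/ml as a sub-toxic cotreatment; 0% = median of DMSO wells and 100% = median of geldanamycin control wells; wells of about 8 µL received 7.5 nL stock; the first replicate is given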
T cruzi repl – inhibitors of intracellular T. cruzi growth, primary screen, luminescence, NIH3T3 host cells; T. cruzi beta-gal in NIH3T3, 90 h; inhibition, % (no concentration beside the values); hit rate 1.4% among 300,000;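 active means mean inhibition across valid replicates above about 55%, limit read from the data; inconclusive means mean below that limit but half or more replicates reach it; inactive means mean below it, under half of replicates reach it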;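 further: signal also drops with host cell toxicity which is not excluded here; 0% = plate median of DMSO wells and 100% = zero luminescence signal; higher percent means less beta-gal luminescence so fewer parasites; stock transfer was 50 nL into about 50 µL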
Vif TR-FRET – inhibitors of Vif binding to APOBEC3G peptide, primary screen, biochemical, TR-FRET, GST-Vif 1-94, biotin-A3G peptide, dose response retest (AID 1117319) | Virion infectivity factor (Human immunodeficiency virus type 1 group M subtype B (isolate … | TR-FRET GST-Vif / biotin-A3G peptide binding; higher % means a stronger effect; test concentration not given here; strong numbers were not always called active | inhibition, %, or IC50 in µM where a hit was titrated | hit rate 0.57% among 260,000;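 active means above the screen mean plus three standard deviations and confirmed in dose response; inconclusive means results disagree or hit not tested in dose response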;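 further: Vif residues 1-94 fused to GST binding biotinylated APOBEC3G peptide 110-148; 0% = full assay without inhibitor and 100% = GST in place of GST-Vif; retest series ran down from 100 µM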
LANA-H2A inh – blockers of LANA interaction with H2A/H2B – biochemical, FP readout, HTS, primary screen; hit rate 0.6% among 320,000; Protein LANA1 (Human herpesvirus 8 type P (isolate GK18)), Q9QR71; cell-free LANA-H2A/H2B peptide, fluorescence polarization; inhibition, % (no concentration beside the values); in the data active means inhibition mostly above about 10%, no sharp cut-off; inactive means mostly below about 6.7%;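 further: stock transfer was 7.5 nL into about 10 µL; 0% = median of vehicle wells and 100% = median of positive control wells; one replicate is shown; the record names a cut of 25% in any replicate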
Beta apoptosis – inhibitors of cytokine-induced beta cell apoptosis, primary screen, luminescence | hit rate 0.8% among 300,000 | INS-1E cytokine-induced death, ATP luminescence, 48 h; percent of positive-control rescue, neutral wells zero | protection from apoptosis, % (test concentration not listed) | AID 435005, 2010;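 active means all replicates at 75% or more, or half of them and the mean; inconclusive means half reach 75% but not the mean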;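 further: 0% = cytokine-treated negative control wells and 100% = positive control rescue; higher means more ATP so stronger rescue from cytokine killing; wells of about 40 µL received 100 nL stock; the first replicate is given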
A1 inh – caspase 3/7 activation in MEF A1-2A-BIM cells, primary screen, A1 inhibitor project, cell-based, luminescence, HTS; Caspase-Glo 3/7 luminescence, 3 h; percent of clofoctol response, vehicle zero; caspase activation, % (no concentration beside the values); hit rate 0.066% among 330,000; AID 2462, 2010;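 active means over half of replicate activation scores above 10%, or exactly half above 10 with the replicate mean above 10; inconclusive means replicate mean below 10 yet half the replicates above 10; inactive means over half of replicates below 10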;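 further: wells of about 30 µL received 50 nL stock; many hits fall short of the cut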
MLL AF4-AF9 inh – inhibitors of AF4 peptide binding to AF9, primary screen, biochemical, AlphaScreen, biotin-AF4 peptide, FLAG-AF9, single point; Protein AF-9 (Homo sapiens), P42568; inhibition, % at 10 µM; hit rate 0.47% among 350,000;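 active means every replicate reaching a set inhibition limit, whatever the replicate mean, cut at about 25% in these data; inconclusive means mean inhibition reaches that limit but some replicates miss it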;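 further: 0% = plate neutral control median and 100% = total signal loss; the record names both 10 and 1 µM as test concentration; the first replicate is given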
Target sequence (P42568 whole entry, looked up): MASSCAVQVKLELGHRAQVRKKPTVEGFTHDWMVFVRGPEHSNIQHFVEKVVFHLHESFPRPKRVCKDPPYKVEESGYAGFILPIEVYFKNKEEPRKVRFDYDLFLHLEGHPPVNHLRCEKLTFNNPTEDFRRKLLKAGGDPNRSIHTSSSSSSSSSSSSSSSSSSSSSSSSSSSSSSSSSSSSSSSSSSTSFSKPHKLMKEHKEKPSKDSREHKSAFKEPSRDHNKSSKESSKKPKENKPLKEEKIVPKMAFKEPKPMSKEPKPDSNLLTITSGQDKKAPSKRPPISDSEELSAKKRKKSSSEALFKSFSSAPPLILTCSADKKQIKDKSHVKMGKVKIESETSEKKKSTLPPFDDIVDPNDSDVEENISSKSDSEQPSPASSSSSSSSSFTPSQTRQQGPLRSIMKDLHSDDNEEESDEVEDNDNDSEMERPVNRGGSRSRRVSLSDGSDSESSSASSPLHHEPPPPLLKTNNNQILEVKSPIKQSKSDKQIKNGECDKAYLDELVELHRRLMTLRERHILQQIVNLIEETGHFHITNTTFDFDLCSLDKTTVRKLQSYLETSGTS
* = called active by the depositor; u = inconclusive; x = not tested or not shown; & = joins results of further samples.

SMILES	RanGTP-Impb inh	Calb FLC	T cruzi repl	Vif TR-FRET	LANA-H2A inh	Beta apoptosis	A1 inh	MLL AF4-AF9 inh
CC(C)c1[nH]nc2c1C(c1cccnc1)C(C#N)=C(N)O2 (stereo not drawn)	6.9	-23	-11	18%	-0.1	1	0.9	x
COc1ccc(C2NCCn3cccc32)cc1 (stereo not drawn)	-1.7	-10	-13	-1%	0.6	-4	-0.4	x
CN(CCC#N)C(=O)COC(=O)c1c2c(nc3ccccc13)/C(=C/c1ccco1)CC2	-81	10	-9	x	2.7	0	-4.3	x
COc1ccc(C(=O)C2CCCN(Cc3cccn3-c3nccs3)C2)cc1F (stereo not drawn)	8.0	26	28	x	-5.7	8	0.6	13
O=C(CC1C(=O)NCCN1Cc1c(F)cccc1Cl)NCCCn1ccnc1 (stereo not drawn)	-1.6	-16	-5	11%	-0.8	-9	0.4	1.5
C/C(=C\C(=O)c1ccccc1)Nc1ccc2c(c1)OCO2	4.7	-14	2	15%	2.4	3	0.4	u
CC1CCN(C(=O)CN2C(=O)C(=O)N(C)C2=O)c2ccccc2S1 (stereo not drawn)	x	x	x	x	-0.4	-6	1.2	-1.5
COc1ccccc1/C=C1/C(=O)N(c2ccc([N+](=O)[O-])cc2)N=C1C	-2.2	1	-8	x	2.7	-10	0.3	4.4
COc1ccc(CNC(=O)CSc2ncnc3ccccc23)cc1OC	-0.5	-1	-5	-9%	2.0	-6	0.5	-0.8
COc1ccc(-c2cn(Cc3ccc(C(=O)c4ccccc4)cc3)nn2)cc1	0.2	0	-12	x	-2.8	106*	-5.1	1.7
CCCN(CC(=O)Nc1ccc(F)c(F)c1F)C(=O)Cc1ccc(S(=O)(=O)N2CCOCC2)s1	x	x	x	0%	-5.0	-2	0.2	3.6
CSc1ncccc1C(=O)N(C)CC(=O)Nc1cccc(F)c1	2.1	1	-4	-2%	1.7	-5	0.4	-1.3
Cc1c(N2C(=O)C(C)SC23C(=O)Nc2ccccc23)c(=O)n(-c2ccccc2)n1C (stereo not drawn)	-2.9	-5	-22	12%	2.1	-6	0.9	x
COc1ccc(-c2csc3ncnc(N4CCN(S(=O)(=O)c5ccc(C)cc5)CC4)c23)cc1	-2.7	5	50	-9%	-4.1	24	-0.2	2.4
Cc1ccc(OCC(=O)N(Cc2ccccc2)c2ccccn2)cc1	1.1	8	4	13%	-3.1	-1	-1.1	-1.3
O=C(CNC(=O)c1ccccc1)NCC(=O)OCc1ccccc1Cl	0.0	3	-10	x	-1.5	-2	0.9	-1.0
O=C(COc1cccc(-n2cnnn2)c1)Nc1ccc([N+](=O)[O-])cc1	0.4	-2	3	x	-1.9	-4	1.6	-0.4
CC[C@H](C)[C@H](NC(N)=O)C(=O)NNC(=O)c1ccc(COc2cccc3cccnc23)cc1	-2.3	2	-3	x	1.2	-3	-1.0	35*
COc1cc(C(=O)N=c2sc3c(C)ccc(OC)c3n2C)cc(OC)c1OC	-2.0	-10	22	-6%	-1.4	25	-5.8	-40
CN(C[C@@H](CC1CCCCC1)N(C[C@H](Cc1ccccc1)N(CCc1ccccc1)N=O)N=O)N=O	-1.9	-14	43	u	0.7	7	0.5	0.8
CCCCc1ccc(C2C3=C(CC(C)(C)CC3=O)NC3=C2C(=O)c2ccccc23)cc1 (stereo not drawn)	1.9	-1	36	x	4.3	-2	1.7	11
O=C1OC[C@@H]2CCCN2C(=O)[C@H](CC(=O)N(CCO)Cc2ccccc2)C/C=C\CC[C@H]1Cc1ccc(F)cc1	x	x	x	x	15	-10	1.2	-2.2
O=C(Nc1ccc(F)cc1)c1cc2cc(Cl)ccc2[nH]1	u	-1	4	-9%	-1.1	4	-0.2	0.9
N#Cc1cccc(NC(=O)Cn2cnc(S(=O)(=O)N3CCOCC3)c2)c1	3.4	-22	-8	-1%	4.6	2	-0.9	x
CCCC(C)C(=O)Nc1ccc(NC(C)=O)cc1 (stereo not drawn)	-1.9	-2	-5	6%	5.5	3	0.0	x
CCCCCCCCCC(=O)OCC(O)CO (stereo not drawn)	5.1	x	-13	-7%	0.1&-16	-2	0.4	5.8
Cc1ccccc1NC(=O)CCCSc1nc2ccccc2s1	-0.3	-8	10	x	0.8	-2	0.3	5.1
Cc1nc([N+](=O)[O-])cn1CC(O)c1ccc(-c2ccccc2)cc1 (stereo not drawn)	2.9	2	5	27%	-3.7	-2	-0.1	x
CCn1c(N)c(C(=O)NC2CCCCC2)sc1=S	-1.7	-1	9	4%	-4.5	5	1.3	x
O=C(N/N=C/c1ccc[nH]1)c1c[nH]c2ccccc12	2.9	-14	-4	x	x	x	x	2.0
Cc1ccc(C)n1-c1ncc(Br)cn1	1.8	3	11	x	7.3	-3	-0.3	-2.3
COc1ccc(-n2c(CN3CCN(c4ccc(F)cc4)CC3)nc3ccc([N+](=O)[O-])cc3c2=O)c(OC)c1	-0.5	-4	20	x	-1.4	9	0.0	6.1
Cc1nnc(NC(=O)c2ccco2)s1	5.8	1	-14	1%	2.8	1	-0.5	0.7
COc1cccc(NC(=O)CCc2c(C)nn(-c3ccc(N4CCOCC4)nn3)c2C)c1	2.0	0	3	x	-4.9	4	-0.5	-28
O=C(CSc1n[nH]c(=O)[nH]c1=O)NCC1CCCCC1	0.1	-3	1	-4%	1.6	0	0.4	0.2
O=C(O)C1Nc2c(cccc2C(F)(F)F)C2C=CCC12 (stereo not drawn)	-1.4	11	-5	x	3.0	-5	-0.1	x

Two successive records already listed, quoted:
SMILES	RanGTP-Impb inh	Calb FLC	T cruzi repl	Vif TR-FRET	LANA-H2A inh	Beta apoptosis	A1 inh	MLL AF4-AF9 inh
CCCC(C)C(=O)Nc1ccc(NC(C)=O)cc1 (stereo not drawn)	-1.9	-2	-5	6%	5.5	3	0.0	x
CCCCCCCCCC(=O)OCC(O)CO (stereo not drawn)	5.1	x	-13	-7%	0.1&-16	-2	0.4	5.8

Further structures follow.
SMILES	RanGTP-Impb inh	Calb FLC	T cruzi repl	Vif TR-FRET	LANA-H2A inh	Beta apoptosis	A1 inh	MLL AF4-AF9 inh
Clc1ccccc1C1CC(c2ccccc2)=Nc2ccccc2N1 (stereo not drawn)	-1.4	1	5	x	-4.0	x	0.6	x
CCOC(=O)COc1ccccc1/C=N\NC(=O)c1cc2c(ccc3ccccc32)o1	-0.1	2	-2	-1%	2.9	-4	1.0	-2.1
CCOc1cc2c(cc1OCC)CN(CC(=O)Nc1ccccc1C(=O)NC1CC1)CC2	x	x	x	-2%	2.0	-4	-1.0	1.2
COc1cccc2cc(C(=O)N(Cc3ccccc3)CC3CCCO3)c(=O)oc12 (stereo not drawn)	0.3	1	1	9%	2.3	0	-1.0	x
O=C(NCc1ccc(Cl)cc1)c1ccc(CSc2nc3ccncc3[nH]2)cc1	3.9	14	53	6%	3.7	-4	-0.4	-7.8
CCCNC(=S)N1CCC(NC(=O)C2CCCCC2)CC1	-3.9	1	-3	-1%	3.4	2	0.9	x
O=c1[nH]nc(SCc2nnc(-c3cccc(Cl)c3)o2)n1C1CCCCC1	-7.9	7	12	x	-17	0	-1.4	-2.2
Oc1ccccc1/C=N/Nc1nccnc1Cl	-1.7	97*	27	66%	6.0	94*	-6.9	x
CC(C)c1ccc(NC(=O)COc2ccccn2)cc1	1.5	-3	56*	x	0.2	0	0.1	-1.2
CC(C)NCC1CCc2cc(CO)c([N+](=O)[O-])cc2N1 (stereo not drawn)	3.6	x	1	x	3.5	-8	-0.5	-1.1
COC(=O)Cc1ccc(NC(=S)N2CCN(c3ccc(OC)cc3)CC2)cc1	6.8	-4	-13	x	-3.1	-4	0.3	-0.9
COc1cc(Cl)c(C)cc1NC(=O)CCCN1C(=O)CCC1=O	-0.4	0	-19	4%	1.5	-5	0.7	x
C=CCSc1nnc(CNC(=O)c2ccc(Cl)cc2)n1CC	0.0	3	-3	0%	7.0	-7	-0.4	-0.7
COc1ccc(C(=O)C[n+]2ccccc2C)cc1	1.7	2	-9	3%	-2.9	-1	0.2	-17
CN(CC(=O)NCc1cccs1)CC(=O)Nc1ccc(F)c(F)c1F	-1.1	11	-9	1%	0.6	-5	-1.0	0.7
Cc1c2cnn(CC(=O)NCCCN3CCCCC3C)c(=O)c2c(C)n1Cc1ccccc1 (stereo not drawn)	4.1	-2	-8	x	-1.0	0	0.4	17
Cc1ccc(S(=O)(=O)N(C)CCCC(=O)Nc2ccncc2)cc1	-2.5	-5	7	-2%	0.4	0	0.4	0.5
O=C(c1cc(COc2c(F)cccc2F)on1)N1CCN(C2CCCCC2)C(=O)C1	-3.2	-4	-2	x	-1.0	1	-1.5	-5.7
CN(CC(=O)Nc1ccccc1Br)C(=O)CNC(=O)c1cccs1	x	x	x	3%	-1.0	-4	-0.8	1.4
CCc1noc(C)c1C(=O)Nc1nc(-c2cccs2)cs1	-0.2	-1	-2	2%	-2.3	10	0.5	-0.7
O=C(N/N=C/c1cccs1)c1ccc(-n2cccc2)cc1	-6.4	-37	-14	24%	-4.6	16	0.6	0.4
O=S1(=O)N=C(N/N=C/c2ccco2)c2ccccc21	3.3	-24	0	x	2.8	2	1.1	0.9
NS(=O)(=O)c1cccc(NC(=S)NC(=O)c2cccc([N+](=O)[O-])c2)c1	0.9	-1	-6	-6%	-3.2	1	-0.5	4.3
CCOCCCNCc1cc(Br)ccc1OCc1ccccc1	-0.7	-29	-4	27%	2.9	2	0.7	2.0
O=C(Cn1cc(C(=O)C2CCCCC2)c2ccccc21)NCC1CCCO1 (stereo not drawn)	9.3	11	0	-2%	-2.8	-9	2.0	-3.5
CCN(CC(=O)Nc1ccc2c(c1)OCCO2)S(=O)(=O)c1ccc(F)cc1	0.7	-4	18	x	-1.2	0	-0.3	-0.2
CC1CC(=O)C2=C(C1)Nc1ncnn1C2c1ccccc1 (stereo not drawn)	7.2	-7	-2	11%	-0.8	3	0.0	x
CS(=O)(=O)Nc1ccccc1C(=O)NCc1ccccc1Cl	-1.4	14	-5	5%	0.8	-11	0.7	-1.6
Cc1cc(C(=O)Nc2c(F)cc(F)cc2Br)c(C)o1	u	-7	-2	17%	-5.5	-5	0.0	x

3 compounds from above, limited to A1 inh and T cruzi repl:
| Molecule | A1 inh | T cruzi repl |
| --- | --- | --- |
| CS(=O)(=O)Nc1ccccc1C(=O)NCc1ccccc1Cl | 0.7 | -5 |
| Cc1cc(C(=O)Nc2c(F)cc(F)cc2Br)c(C)o1 | 0.0 | -2 |
| CC1CC(=O)C2=C(C1)Nc1ncnn1C2c1ccccc1 (stereo not drawn) | 0.0 | -2 |

With a hit mark in MLL AF4-AF9 inh (from the list above):
Molecule	RanGTP-Impb inh	Vif TR-FRET	LANA-H2A inh	A1 inh	MLL AF4-AF9 inh
CC[C@H](C)[C@H](NC(N)=O)C(=O)NNC(=O)c1ccc(COc2cccc3cccnc23)cc1	-2.3	x	1.2	-1.0	35*
